# Screening results as filed in PubChem.
# TRPML1 ag: qHTS for Agonists of the Human Mucolipin Transient Receptor Potential 1 (TRPML1). activation, % (test concentration not listed). AID 624414, 2012. TRPML1-expressing cells, Ca2+ dye fluorescence, FDSS; host cell line not named in the record; reference of the full effect not given here. 410,000 compounds, 0.12% hits; in the data active = activation above about 50%; inconclusive = about 30% to 50%; inactive = below about 30%; note: 0% is about no effect; the text of the record puts the active cut at 80%
# Target sequence (Q9GZU1 whole entry, looked up): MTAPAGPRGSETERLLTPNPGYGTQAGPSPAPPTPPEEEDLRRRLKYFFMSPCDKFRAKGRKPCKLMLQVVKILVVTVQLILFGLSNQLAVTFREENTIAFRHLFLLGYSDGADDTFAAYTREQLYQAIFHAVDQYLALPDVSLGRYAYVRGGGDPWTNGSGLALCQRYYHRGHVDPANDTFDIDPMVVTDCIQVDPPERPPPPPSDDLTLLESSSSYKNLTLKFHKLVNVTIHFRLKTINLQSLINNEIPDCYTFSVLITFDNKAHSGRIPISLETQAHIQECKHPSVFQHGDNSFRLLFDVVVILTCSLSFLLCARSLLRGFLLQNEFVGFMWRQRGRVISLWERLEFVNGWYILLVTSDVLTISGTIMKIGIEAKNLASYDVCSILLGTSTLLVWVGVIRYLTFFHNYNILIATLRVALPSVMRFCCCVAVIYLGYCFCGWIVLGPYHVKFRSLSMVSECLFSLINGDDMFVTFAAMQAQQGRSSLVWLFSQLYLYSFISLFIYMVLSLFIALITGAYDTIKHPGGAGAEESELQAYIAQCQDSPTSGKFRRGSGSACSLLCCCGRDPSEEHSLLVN
#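 Cells: TRPML1-DL, 1X Tet inducer, ~16 h at 37 degrees C/5% CO2. Dye: ABD Ca8 no-wash + quencher, 45-90 min RT. Read: 10 s baseline, compound add, 110 s agonist phase; 54-4 EC80 (4uM final), 110 s antagonist phase.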
# Menin-MLL FL inh: qHTS Assay for Inhibitors Targeting the Menin-MLL Interaction in MLL Related Leukemias: Competition With Fluorescein Labeled MLL-derived Peptide; Fluorescence polarization, fluorescein-MLL peptide displacement from menin; FP activity change, % at 61.4 µM; 290,000 tested, under 10 active; inconclusive = falling polarisation curve, or a change in total fluorescence; inactive = total fluorescence flat and polarisation flat or rising; no compound was filed as active; the % refers to the polarisation; negative = inhibition;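 note: % of control where 0% means no effect; inhibitors lower the polarisation; unlabelled MLL peptide was the positive control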
# TRPV1 potentiator: HTS Assay for Compounds that Act as Potentiators of the Vanilloid Receptor 1; Transient receptor potential cation channel subfamily V member 1 (Homo sapiens), Q8NER1; TRPV1-expressing cells, Fluo-8 calcium influx, capsaicin EC20 potentiation; host cell line not named in the record; control for the full effect not named in the record; potentiation, % at 8.33 µM; 320,000 compounds, 0.02% hits; AID 540277, 2011; active means potentiation above 80%; inconclusive means 30% to 80%; inactive means below 30%; note: 0% is about no effect
#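 Fluo-8 calcium influx in TRPV1-expressing cells, kinetic read (ex 480/em 520 nm). Compound added and read 3 min for agonist activity, followed by capsaicin at EC20 final and 2 min further read for enhancement.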
# PINK1 expr mod: A Quantitative High throughput Screen to Identify Chemical Modulators of PINK1 Expression; PINK1 immunofluorescence, high-content cytometry, 24 h; Potency, µM (doses to about 76.6 µM), for the others: at the top dose activation (PINK1 increase), hits mostly activators; 410,000 compounds, 0.2% hits; AID 624263, 2012; active = well fitted activation curve with a large enough effect; inconclusive = small, poorly fitted or top-dose-only effect; inactive = flat fitted curve, though single readings scatter; cell line not stated here;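 note: potency is the fitted concentration of half-maximal effect; % of control where 0% means no effect; nearly all actives have a fitted effect of over 65% in size; a mitochondrial uncoupler was the plate control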
#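 Compound titrations (5 concentrations, 24 h) on a stable cell line; DMSO and CCCP controls. Endpoint: fixed-cell PINK1 immunofluorescence with mitochondrial, cell and nuclear markers, scanned by microplate cytometer.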
# TRPML1 inh: qHTS for Inhibitors of the Human Mucolipin Transient Receptor Potential 1 (TRPML1). Mucolipin-1 (Homo sapiens), Q9GZU1. TRPML1-inducible cells, Ca2+ dye fluorescence, FDSS; stronger effect = lower value; inhibition of EC80 agonist-evoked calcium signal. activity change, negative = inhibition, % (concentration not given with the values). 390,000 compounds, 0.02% hits. AID 624415, 2012; in the data active means activity change below about -50%; inconclusive means about -30% to -50%; inactive means above about -30%;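 note: stimulus is agonist 54-4 at its EC80 concentration; % is set by controls: 0 for no effect and ±100 for the full control effect; the text of the record puts the active cut at -80%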
#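 TRPML1-DL cells, Tet-induced overnight (~16 h, 37 °C) at 1,500 cells/well, were loaded with Ca8 no-wash dye plus quencher for 45-90 min at room temperature. Compounds were pinned during FDSS kinetic reading; agonist 54-4 at EC80 (4 uM final) then added.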
# Sfp inh: qHTS Assay for Inhibitors of Bacillus subtilis Sfp phosphopantetheinyl transferase (PPTase) | Biochemical Sfp PPTase activity, qHTS | Potency, µM, for the others: max response, negative = inhibition, actives largely listed as inhibitors | 310,000 compounds, 3.5% hits | AID 1490, 2009; active = well fitted inhibition curve with a large enough effect; inconclusive = small, poorly fitted or top-dose-only effect, or another doubt; inactive = no such curve, though single readings can be large or run the other way;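 note: the enzyme is Sfp with the accession as filed and its product quenches rhodamine fluorescence; potency is the fitted concentration of half-maximal effect; 0% = enzyme reaction without inhibitor and -100% = no enzyme wells; top concentration of the series not given in the record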
#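 After 15 min at room temperature with compound, 15 nM Sfp received 5 uM rhodamine-CoA plus 12.5 uM BHQ-2-ybbR (50 mM Hepes pH 7.6, 10 mM MgCl2). Rate came from the fluorescence difference over 30 min, ex 525/em 598 nm.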
# ClpP mod: qHTS Assay for Activators of ClpP. ATP-dependent Clp protease proteolytic subunit (Bacillus subtilis (strain 168)), P80244. purified B. subtilis ClpP, FRET peptide cleavage, 20 min. Potency, µM (series often up to 57.5 µM), for inactives: at the top dose activity change, negative = active. 340,000 compounds, 1.9% hits. AID 651965, 2013; active = well fitted falling curve with a large enough effect; inconclusive = small, poorly fitted or top-dose-only effect; inactive = no such curve, though single readings can be large or run the other way; note: potency is the fitted concentration of half-maximal effect; the source files actives as falling curves though it sought activators and does not explain the sign; nearly all actives have a fitted effect of over 65% in size; many hits overshoot -100%
# Target sequence (P80244 whole entry, looked up): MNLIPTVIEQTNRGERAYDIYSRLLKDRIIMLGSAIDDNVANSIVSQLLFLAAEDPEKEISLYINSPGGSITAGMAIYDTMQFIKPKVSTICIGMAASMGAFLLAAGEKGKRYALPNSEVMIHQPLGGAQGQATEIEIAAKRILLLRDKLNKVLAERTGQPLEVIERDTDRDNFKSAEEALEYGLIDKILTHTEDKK
#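 Purified B. subtilis ClpP, 10 microg/mL final in Tris/HCl pH8 with KCl, BSA, glycerol and Tween-20, cleaved an Abz/nitrotyrosine-quenched decapeptide. Fluorescence (ex 320, em 430) was read at 0 and 20 min at room temperature. Delta was normalized to 5.8 microM ADEP and DMSO/no-enzyme controls.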
# Numbers without * were called inactive; ? = inconclusive; / = no result given; [ ] = another dose, or the depositor's remark.
SMILES,TRPML1 ag,Menin-MLL FL inh,TRPV1 potentiator,PINK1 expr mod,TRPML1 inh,Sfp inh,ClpP mod
Cc1noc(N)c1C1(O)C(=O)Nc2c(Cl)cc(Cl)cc21 (configuration not stated),-0.2,0.3,-9,0.3%,-4,19%,/
Cc1ccccc1N1C(=O)C(Cl)=C(N2CCOCC2)C1=O,-1.2,4.8,-2,0.0%,-8,-11%,-2.1%
COc1ccc(CCN2C(=S)NC3CC2(C)Oc2ccc([N+](=O)[O-])cc23)cc1OC (configuration not stated),1.7,1.4,19,3.4%[38.3 µM],-7,27%,-1.4%
CCOc1ccccc1NC(=O)CN1CCCCCC1,-0.5,-2.7,-14,3.8%,26,-22%,?
COc1cccc(CC(=O)OCC(=O)Nc2nnc(-c3ccccc3)o2)c1,0.5,/,17,-1.8%,3,/,-4.7%
O=C(Nc1nc(-c2ccc(Br)cc2)ns1)c1ccccc1F,1.9,/,/,0.3%,-23,/,-8.0%
COc1ccc(CCNS(=O)(=O)c2ccc3c(c2)OCCO3)cc1OC,0.0,5.5,9,1.6%,-7,8%,1.7%
COCCNS(=O)(=O)c1cccn1-c1ncc(C(F)(F)F)cc1Cl,-0.1,0.2,2,1.4%,-3,-1%,-0.7%
Cc1ccc(C)c(N2CCN(C(=O)CCc3nc(-c4ccccc4Cl)no3)CC2)c1,-0.1,/,/,0.1%,9,/,-1.3%
COc1cc(C#Cc2c(-c3cncn3C)n(C)c3ccc(-c4ccc5[nH]ccc5c4)cc23)cc(OC)c1,-0.5,/,1,0.2%,20,/,3.3%
Cc1cnc(NC(=O)CSc2nnc(-c3ccccc3)n2Cc2ccccc2)s1,1.8,0.9,0,-0.7%,-14,16%,2.0%
O=S(=O)(NCc1nnc2ccccn12)c1ccc(F)cc1,0.8,/,7,-2.1%,5,/,-16%
Cc1ccc(S(=O)(=O)NCc2ccc(N3CCN(C(=O)OC(C)(C)C)CC3)cc2)cc1,2.9,1.0,1,1.0%,?,3%,1.9%
CC1(C)OC(=O)C(=NNc2ccc(O)cc2)C(=O)O1,0.3,6.3,-19,1.3%,9,14%,0.6%
Cc1ccc(Cn2c(C3CCCN3c3nc(-c4cc(Cl)c(N)c(Cl)c4)cs3)nc3cc(C(=O)NCCCO)ccc32)cc1 (configuration not stated),-0.5,/,/,4.8%,6,/,1.5%
S=C(NCc1ccco1)Nc1ccc(Cl)cc1,-0.4,1.8,-15,2.0%,-1,-1%,-0.9%
COc1ccc2cc(C3CC(c4ccco4)=NN3S(=O)(=O)c3ccccc3)c(Cl)nc2c1 (configuration not stated),0.0,12,15,2.5%,12,2%,-7.5%
Cc1cc(C)c2c(CN3CCOCC3)cc(=O)oc2c1,1.1,0.9,19,-1.5%,15,12%,-1.5%
O=C(NN=Cc1ccc(O)c(O)c1)c1ccccc1,-0.3,/,/,3.2%,/,/,-0.3%
Cc1ccc(S(=O)(=O)N2CCCCC2CCNC(=O)C(=O)Nc2ccccc2F)cc1 (configuration not stated),2.4,/,2,7.9%,56,/,-1.2%
O=C(Nc1ccc(CCC(=O)N2CCCC2)cc1)c1ncn[nH]1,-0.8,1.7,8,1.4%,-6,10%,-2.2%
CCc1nc(SCc2ccc(C(=O)OC)o2)n[nH]1,0.4,7.0,7,1.5%,-11,-7%,/
CCCCNC(=O)C1(C)CCN1C(=O)c1cc(C)n(C(C)(C)C)n1 (configuration not stated),-0.4,/,/,1.0%,/,/,0.4%
O=S(=O)(NCCc1c[nH]c2ccccc12)c1ccccc1,-1.2,/,8,1.0%,6,10%,0.3%
CC1(C)Oc2ccc3ccc(=O)oc3c2/C(=C/Nc2ccccn2)C1=O,1.9,2.8,-14,1.8%[38.3 µM],-8,3%,-1.1%
CCCCN(C)C(=O)C1CCC(Cn2c(=O)[nH]c3ccsc3c2=O)CC1 (configuration not stated),1.1,/,/,4.6%,8,/,-1.3%
COC(=O)c1ccc(C(=O)NC2CCCc3c2cnn3-c2ccc(C)c(C)c2)cc1 (configuration not stated),0.0,6.7,-10,?,-1,10%,1.3%
CS(=O)(=O)N(CC(=O)Nc1ccccc1C(=O)NCc1ccco1)c1ccccc1F,-1.2,-5.4,-18,-0.2%,10,-5%,0.9%
COc1ccc(NC2CCCN(Cc3cccc4cnccc34)C2)cc1OC (configuration not stated),-0.6,-1.3,16,-1.1%,-19,5%,-3.9%
O=C1NC(=NCc2ccccc2)NC1(c1ccccc1)c1ccccc1,-0.9,/,/,-0.5%,8,/,/
Nc1nc(SCC(=O)c2cccc([N+](=O)[O-])c2)n[nH]1,0.3,0.3,8,2.7%,-16,?,-2.5%
COC(=O)c1nc(C(=O)OC)c(C(=O)OC)nc1C(=O)OC,-0.7,1.9,0,1.6%,-8,5%,-0.5%
Cc1ccc([N+](=O)[O-])cc1NC(=O)CCc1ccccc1,-0.4,0.7,-13,1.5%,-10,6%,/
Cn1c(=O)c2c(nc(CN3CCN(c4ccc(F)cc4)CC3)n2CCN2CCOCC2)n(C)c1=O,1.5,1.6,-10,-0.4%,2,9%,-3.3%
CCOC(=O)CC12CN3CN(C1)CC(CC(=O)OCC)(C3)C2=O,0.5,-1.3,1,/,14,13%,-17%
COc1ccc(N2C(=O)CS(=O)(=O)C23C(=O)N(Cc2ccc(F)cc2)c2ccc(C)cc23)cc1 (configuration not stated),0.7,/,/,-3.6%,2,/,-1.6%
COc1ccc(NC(=O)CC2C(=O)Nc3ccccc3N2CC(=O)N2CCCC2)cc1 (configuration not stated),-0.1,/,14,1.7%,-25,/,-7.6%
Cc1ccc(/C=C2\SC(=S)N(C3CCS(=O)(=O)C3)C2=O)cc1 (configuration not stated),-0.2,-0.3,6,0.7%,-7,11%,/
COC(=O)C(Cc1ccccc1)NC(=O)CNC(=O)c1ccc(Br)cc1 (configuration not stated),-0.2,/,-3,1.9%,-13,2%,/
CSc1nnc(-c2sc3cc(Cl)ccc3c2Cl)n1C,1.7,1.0,4,-2.4%,-3,13%,-9.4%
O=C1NCC(c2ccccc2)C1C(=O)N/N=C/c1ccc(Cl)s1 (configuration not stated),0.2,-0.3,-7,0.3%,-6,7%,/
O=C(NCc1cccs1)c1cccnc1SCCS(=O)(=O)c1ccc(C(F)(F)F)cn1,0.2,2.1,-2,-1.5%,-8,-2%,/
Cc1ccc(NC(=S)NCCSc2ccc(Cl)cc2)cc1,2.8,1.6,-20,0.1%,8,20%,/
CCCc1nnc(NC(=O)c2cn(CC)c3cc(N4CCN(C)CC4)c(F)cc3c2=O)s1,2.3,-1.2,8,2.8%,?,11%,-7.1%
COc1c(C(=O)Nc2ccc3[nH]c(=O)[nH]c3c2)cc2ccccc2c1Br,1.4,-3.2,-1,1.3%,13,8%,/
CC(C)c1ccc(NC(=O)Nc2nc(C(N)C3CCCCC3)cs2)cc1 (configuration not stated),-0.1,/,/,0.4%,/,/,-0.2%
O=C(COc1ccc(F)cc1)Nc1ccc2nc(SCCOc3ccccc3)sc2c1,-0.3,/,/,1.6%,-10,/,-11%
CSc1sc(-c2nnc(SCC(=O)Nc3ccccc3)n2C)c2c1C=CCC2,2.4,-0.5,20,7.3%,-11,9%,0.1%
COc1ccc(S(=O)(=O)N(CC(=O)NCC2CCCO2)Cc2ccccc2)cc1C (configuration not stated),0.6,3.5,-19,0.7%,-10,7%,0.1%
CCOC(=O)c1sc(NC(=O)c2ccc(S(=O)(=O)N3CCOCC3)cc2)cc1C,0.1,0.7,-12,2.8%,-10,-7%,-0.2%
CCCc1ccc(-c2cc(NC(=O)CSc3n[nH]c(N)n3)n(-c3ccccc3)n2)cc1,0.4,20,-3,1.8%[38.3 µM],12,14%,-4.9%
Cc1cccc(C)c1NC(=O)c1cc(S(=O)(=O)N2CCCc3ccccc32)ccc1F,1.5,/,/,0.7%,50,/,1.1%
O=C(OCc1nc2ccccc2s1)c1cccc(S(=O)(=O)N2CCOCC2)c1,0.8,-1.7,-18,0.2%,48,-12%,-1.8%
Cc1c(C(=O)N2CCN(c3ccccn3)CC2)cccc1[N+](=O)[O-],0.9,-0.4,-1,-0.1%,7,19%,-1.4%
Cc1ccc(NC(=O)C(Cc2ccccc2)NS(=O)(=O)c2cccc3nsnc23)c(C)c1 (configuration not stated),2.9,/,/,1.1%,-5,/,-0.7%

# One compound at a time, from the list above. Screens in order: TRPML1 ag | Menin-MLL FL inh | TRPV1 potentiator | PINK1 expr mod | TRPML1 inh | Sfp inh | ClpP mod
# Results for CCCCN(C)C(=O)C1CCC(Cn2c(=O)[nH]c3ccsc3c2=O)CC1 (configuration not stated) = 1.1 | / | / | 4.6% | 8 | / | -1.3%
# Results for COc1cccc(CC(=O)OCC(=O)Nc2nnc(-c3ccccc3)o2)c1 = 0.5 | / | 17 | -1.8% | 3 | / | -4.7%
# Results for Cc1ccc(S(=O)(=O)N2CCCCC2CCNC(=O)C(=O)Nc2ccccc2F)cc1 (configuration not stated) = 2.4 | / | 2 | 7.9% | 56 | / | -1.2%
# Results for Cc1noc(N)c1C1(O)C(=O)Nc2c(Cl)cc(Cl)cc21 (configuration not stated) = -0.2 | 0.3 | -9 | 0.3% | -4 | 19% | /
# Results for CCc1nc(SCc2ccc(C(=O)OC)o2)n[nH]1 = 0.4 | 7.0 | 7 | 1.5% | -11 | -7% | /

# Shown field by field: entries from further up
O=C(NCc1cccs1)c1cccnc1SCCS(=O)(=O)c1ccc(C(F)(F)F)cn1
  TRPML1 ag: 0.2; Menin-MLL FL inh: 2.1; TRPV1 potentiator: -2; PINK1 expr mod: -1.5%; TRPML1 inh: -8; Sfp inh: -2%; ClpP mod: /

Cc1ccc(NC(=S)NCCSc2ccc(Cl)cc2)cc1
  TRPML1 ag: 2.8; Menin-MLL FL inh: 1.6; TRPV1 potentiator: -20; PINK1 expr mod: 0.1%; TRPML1 inh: 8; Sfp inh: 20%; ClpP mod: /
